# Source: PubChem
# ClpP mod: qHTS Assay for Activators of ClpP; ATP-dependent Clp protease proteolytic subunit (Bacillus subtilis (strain 168)), P80244; purified B. subtilis ClpP, FRET peptide cleavage, 20 min; Potency, µM (doses to about 57.5 µM), for inactives: at the highest dose activity change, negative = active; hit rate 1.9% among 340,000; AID 651965, 2013; active = well fitted falling curve with a large enough effect; inconclusive = small, poorly fitted or top-dose-only effect; inactive = no such curve, though single readings can be large or run the other way; further: potency means the concentration at half of the fitted maximal effect; the source files actives as falling curves though it sought activators and does not explain the sign; nearly all actives have a fitted effect of over 65% in size; many hits overshoot -100%
# Target sequence (P80244 whole entry, looked up): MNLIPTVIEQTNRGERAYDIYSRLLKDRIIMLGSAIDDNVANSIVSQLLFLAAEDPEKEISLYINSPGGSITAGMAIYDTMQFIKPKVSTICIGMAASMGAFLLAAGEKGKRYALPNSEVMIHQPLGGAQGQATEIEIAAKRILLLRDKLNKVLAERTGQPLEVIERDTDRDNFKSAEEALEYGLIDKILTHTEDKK
#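 ClpP 10 microg/mL final, pH 8 Tris/KCl buffer with BSA, glycerol, Tween-20; compound pinned in; FRET-FV substrate; RT 20 min; Ex320/Em430; ΔFRET vs ADEP 5.8 microM, DMSO, no enzyme.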
# TRPML1 ag: qHTS for Agonists of the Human Mucolipin Transient Receptor Potential 1 (TRPML1); Mucolipin-1 (Homo sapiens), Q9GZU1; TRPML1-expressing cells, Ca2+ dye fluorescence, FDSS; host cell line not named in the record; reference of the full effect not given here; activation, % (test concentration not listed); hit rate 0.12% among 410,000; AID 624414, 2012; in the data active = activation above about 50%; inconclusive = about 30% to 50%; inactive = below about 30%; further: 0% is about no effect; the text of the record puts the active cut at 80%
# Target sequence (Q9GZU1 whole entry, looked up): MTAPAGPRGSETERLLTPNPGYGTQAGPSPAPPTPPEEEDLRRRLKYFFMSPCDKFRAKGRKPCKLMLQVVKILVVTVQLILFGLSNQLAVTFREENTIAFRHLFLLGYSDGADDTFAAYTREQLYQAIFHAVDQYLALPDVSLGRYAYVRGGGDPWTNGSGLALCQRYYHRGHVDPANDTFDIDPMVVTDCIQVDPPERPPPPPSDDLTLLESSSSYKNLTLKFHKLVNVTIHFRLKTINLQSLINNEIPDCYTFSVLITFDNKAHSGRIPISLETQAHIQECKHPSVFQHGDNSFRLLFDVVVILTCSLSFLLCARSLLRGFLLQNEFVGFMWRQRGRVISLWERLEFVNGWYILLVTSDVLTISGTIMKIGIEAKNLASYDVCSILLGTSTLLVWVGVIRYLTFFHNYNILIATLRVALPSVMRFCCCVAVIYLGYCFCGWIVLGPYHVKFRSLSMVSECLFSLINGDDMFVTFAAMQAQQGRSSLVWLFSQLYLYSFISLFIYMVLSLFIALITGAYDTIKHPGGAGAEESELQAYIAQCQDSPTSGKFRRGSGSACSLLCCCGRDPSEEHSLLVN
#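 Tet-induced TRPML1-DL cells, 1,500 per well, cultured overnight, were loaded with a no-wash Ca2+ dye for 45–90 min. Calcium fluorescence was recorded on the FDSS for 110 s after compound addition, before the EC80 agonist (4 uM 54-4) was added.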
# TRPML1 inh: qHTS for Inhibitors of the Human Mucolipin Transient Receptor Potential 1 (TRPML1); Mucolipin-1 (Homo sapiens), Q9GZU1; TRPML1-inducible cells, Ca2+ dye fluorescence, FDSS; active compounds read low; inhibition of EC80 agonist-evoked calcium signal; activity change, negative = inhibition, % (concentration not given with the values); hit rate 0.02% among 390,000; in the data active means activity change below about -50%; inconclusive means about -30% to -50%; inactive means above about -30%;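 further: stimulus is agonist 54-4 at its EC80 concentration; on the % scale 0 is the no-effect control and ±100 the full control effect; the text of the record puts the active cut at -80%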
#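 TRPML1-DL cells, Tet-induced overnight (~16 h, 37 °C) at 1,500 cells/well, were loaded with Ca8 no-wash dye plus quencher for 45-90 min at room temperature. Compounds were pinned during FDSS kinetic reading; agonist 54-4 at EC80 (4 uM final) then added.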
# TRPV1 PAM: HTS Assay for Compounds that Act as Potentiators of the Vanilloid Receptor 1; potentiation, % at 8.33 µM; AID 540277, 2011; Transient receptor potential cation channel subfamily V member 1 (Homo sapiens), Q8NER1; hit rate 0.02% among 320,000; TRPV1-expressing cells, Fluo-8 calcium influx, capsaicin EC20 potentiation; host cell line not named in the record; control for the full effect not named in the record; active means potentiation above 80%; inconclusive means 30% to 80%; inactive means below 30%; further: 0% is about no effect
#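 TRPV1-expressing cells were cultured overnight at 35.5C and loaded with Fluo-8 calcium dye for 40 to 90 min at room temperature. After a 10 s baseline, compound was added and calcium influx was read kinetically for 3 min (ex 480/em 520 nm).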
# Menin-MLL FL inh: qHTS Assay for Inhibitors Targeting the Menin-MLL Interaction in MLL Related Leukemias: Competition With Fluorescein Labeled MLL-derived Peptide; Fluorescence polarization, fluorescein-MLL peptide displacement from menin; FP activity change, % at 61.4 µM; 290,000 tested, under 10 active; AID 1766, 2009; inconclusive = falling polarisation curve, or a change in total fluorescence; inactive = total fluorescence flat and polarisation flat or rising; no compound was filed as active; the % refers to the polarisation; negative = inhibition;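 further: % of control where 0% means no effect; inhibitors lower the polarisation; unlabelled MLL peptide was the positive control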
# Sfp PPTase inh: qHTS Assay for Inhibitors of Bacillus subtilis Sfp phosphopantetheinyl transferase (PPTase). 4'-phosphopantetheinyl transferase ffp (Bacillus subtilis), Q9F4F7. Biochemical Sfp PPTase activity, qHTS. Potency, µM, inactives show max response, negative = inhibition, most hits filed as inhibitors. hit rate 3.5% among 310,000. AID 1490, 2009; active means well fitted inhibition curve with a large enough effect; inconclusive means small, poorly fitted or top-dose-only effect, or another doubt; inactive means no such curve, though single readings can be large or run the other way;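 further: the enzyme is Sfp with the accession as filed and its product quenches rhodamine fluorescence; potency means the concentration at half of the fitted maximal effect; 0% = enzyme reaction without inhibitor and -100% = no enzyme wells; top concentration of the series not given in the record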
#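 After 15 min at room temperature with compound, 15 nM Sfp received 5 uM rhodamine-CoA plus 12.5 uM BHQ-2-ybbR (50 mM Hepes pH 7.6, 10 mM MgCl2). Rate came from the fluorescence difference over 30 min, ex 525/em 598 nm.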
# PINK1 modulator: A Quantitative High throughput Screen to Identify Chemical Modulators of PINK1 Expression; PINK1 immunofluorescence, high-content cytometry, 24 h; Potency, µM (highest dose often 76.6 µM), for inactives: at the top dose activation (PINK1 increase), most hits filed as activators; hit rate 0.2% among 410,000; AID 624263, 2012; active = well fitted activation curve with a large enough effect; inconclusive = small, poorly fitted or top-dose-only effect; inactive = flat fitted curve, though single readings scatter; cell line not stated here;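 further: potency means the concentration at half of the fitted maximal effect; % of control where 0% means no effect; nearly all actives have a fitted effect of over 65% in size; a mitochondrial uncoupler was the plate control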
#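 Stable cell line, 250 cells/well, 12 h attachment; compounds pinned at 5 concentrations, 24 h; CCCP control. Fixed with nuclear dye, primary antibodies 12 h at 10 degrees C, secondary plus cell stain; laser-scanning cytometer read.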
# Numbers without * were called inactive; u = inconclusive; x = not tested or not shown; [ ] = dose if it differs, or a comment. The order is random; any-hit rate near 4.4%.
SMILES,ClpP mod,TRPML1 ag,TRPML1 inh,TRPV1 PAM,Menin-MLL FL inh,Sfp PPTase inh,PINK1 modulator
CCN(C(=O)c1cn(C)c(=O)c2cc(OC)c(OC)cc12)c1cc(C)ccc1C,-4.5%,-0.7,-5,-8,-0.2,2%,0.3%
CCc1cc(C(=O)NNC(=S)NC(C)c2ccccc2)cs1 (stereo not given),1.3%,-0.4,-8,11,-2.2,16%,1.3%[38.3 µM]
CC(=O)Nc1cc(-c2ccoc2)cn2c(-c3ccccc3)cnc12,-25%,-0.8,x,x,x,x,1.8%
O=C(Cn1c(-c2cccs2)cc2ccccc21)N1CCN(c2ccc(Cl)cc2)CC1,10µM*,1.8,47,x,x,x,-0.8%
Cc1ccc(N(CC(=O)N/N=C/c2cccs2)S(C)(=O)=O)cc1,0.9%,-0.4,-4,-18,-1.5,-1%,1.3%
O=C(COC(=O)c1nc(Cl)ccc1Cl)NC1CCCCCC1,-0.3%,1.2,-1,0,x,x,-4.7%
Cn1c(=O)c2c(SCc3ccccc3)nc(C3CC3)nc2n(C)c1=O,x,-0.5,-12,x,-0.5,-11%,5.4%
COc1ccc(N(C(C)C(=O)NCCSCc2cccc(Cl)c2)S(C)(=O)=O)cc1 (stereo not given),-0.8%,-0.5,2,-30,-0.6,12%,3.2%
CCc1ccc(N2CCN(S(=O)(=O)CC34CCC(CC3=O)C4(C)C)CC2)cc1 (stereo not given),x,-0.5,-10,-1,2.0,12%,1.1%
CSc1ncc(CN2CCc3c([nH]c4ccccc34)C2C(C)(C)C)cn1 (stereo not given),-1.5%,2.6,-1,1,-2.7,2%,13%
CC1CCN(c2ccc(C(=O)O)cc2)CC1,-0.3%,1.3,-6,8,0.2,12%,1.0%
CC(C)C(NC(=O)c1c(F)cccc1F)C(=O)N1CCN(c2ncccn2)CC1 (stereo not given),-18%,-0.5,-3,x,x,x,1.0%
O=C(NNc1c(Cl)cncc1Cl)c1cccs1,x,-0.9,1,-4,5.1,3%,2.2%
C/C(=N\NC(=O)C(c1ccncc1)N1CCOCC1)c1ccc(Br)cc1 (stereo not given),-3.7%,0.0,38,-18,-1.4,10%,1.6%
COc1ccc(NC(=O)c2cc(-c3ccccc3O)n[nH]2)cc1Cl,x,-0.3,14,13,-14,10%,3.8%
CC1(c2ccccc2)NC(=O)N(CC(=O)NC(=O)NCc2ccco2)C1=O (stereo not given),u,-0.7,-12,0,3.6,-11%,2.3%
Cc1cc(C(=O)NNCc2ccccc2)no1,0.0%,-0.1,8,10,-2.6[24.8 µM],23%,1.2%
CC1(NC(=O)c2cccc(S(=O)(=O)N3CCN(c4ccc(F)cc4)CC3)c2)CCS(=O)(=O)C1 (stereo not given),-4.2%,-1.0,-6,-4,x,x,3.3%
COc1ccc(C(=O)OCC(=O)c2ccc(Br)s2)c(OC)c1,-0.8%,0.1,12,-11,x,x,0.9%
COc1ccc(/C=C/C(=O)NC(=S)NN2CCCCC2c2cccnc2)cc1 (stereo not given),1.7%,0.9,17,-14,2.1,-19%,-0.3%
N#Cc1ccc(CSc2nc(N)cc(N)n2)cc1,x,0.3,-4,27,-0.6,15%,0.3%
Cc1cc(N2CCN(c3cccc(C(F)(F)F)c3)CC2)n2ncnc2n1,-1.0%,0.4,-13,-16,1.8,15%,1.5%
O=C(NCc1ccc(F)cc1)c1cccc2c1C(=O)c1ccc(N3CCOCC3)cc1S2(=O)=O,-1.9%,18,5,2,x,x,-0.2%
CCCCNC(=O)C1(NC(=O)Nc2ccc(C)cc2)CCCCC1,x,-0.1,-5,-9,-0.3,12%,-0.5%
CCCCNC(=O)N(O)C1N(/N=C/c2ccco2)C(=S)SC1(C)C (stereo not given),0.9%,1.6,12,17,x,x,0.7%
O=C(CSc1nc2ccccc2s1)N/N=C/c1ccco1,-3.0%,-0.3,4,11,0.7,-29%,-1.0%
COCCCNC(=O)CC1C[C@H](C(=O)N(C(C)C)C(C)C)[C@@]2(C)c3[nH]c4ccccc4c3CCN2C1=O (stereo not given in full),-2.3%,-0.9,19,x,x,x,-0.3%
N#C/C(=N\Nc1cc(Cl)cc(Cl)c1)c1nnc2n1CCCCC2,-1.7%,2.5,-10,-1,2.5,u,u
O=c1ccc(-c2ccccc2)nn1Cc1ccccc1,-9.5%,3.5,-20,x,x,x,-1.0%
O=C(c1cc(-c2ccc(Cl)c(Cl)c2)on1)N1CCOCC1,x,0.1,6,4,-0.9,8%,-0.1%
O=C1c2ccccc2[C@@H]2C[C@H](NC34CC5CC(CC(C5)C3)C4)[C@@H](O)CCN12,2.2%,-0.6,1,x,x,x,0.4%
CC(=O)Nc1ccc(C(=O)OCC(=O)c2ccc(C)c([N+](=O)[O-])c2)cc1,0.5%,-0.1,-19,-3,4.1,10%,1.5%
CN(CCC#N)C(=O)Cn1nc(Cc2ccncc2)c2ccccc2c1=O,-3.3%,-0.1,-3,u,1.7,-7%,0.6%
COc1ccccc1N1CCN(C(=O)Cn2c(=O)n3nc(-c4ccc(C)cc4)nc3c3ccccc32)CC1,0.1%,1.1,3,x,x,x,2.1%
CCOc1cc(C(=S)N2CCOCC2)ccc1O,-4.7%,-0.4,35,-4,-1.3,14µM*,-2.0%
COc1cccc(N2CC(NC(=O)C3CCCCC3)CC2=O)c1 (stereo not given),-1.0%,-0.7,-14,x,x,x,0.0%
COc1cccc(CN2CCC(C(=O)N3CCN(Cc4ccc5c(c4)OCO5)CC3)CC2)c1,-1.3%,0.6,24,-5,x,12%,-2.9%
CC(=O)OCc1c(COC(C)=O)[n+](=O)c2ccccc2n1[O-],1.7%,-1.0,-2,-12,0.7,-5%,3.9%
COc1ccc(C(C(=O)NC2CCCCC2)N(Cc2cccs2)C(=O)Cc2c[nH]c3ccccc23)cc1 (stereo not given),2.9%,0.7,-3,4,-0.8,7%,11%[38.3 µM]
COc1ccc2c(c1O)-c1ccccc1CCN(C)C2,-12%,x,x,-8,-2.2,15%,0.1%

# Reformatted: results already given
# Under each structure – ClpP mod | TRPML1 ag | TRPML1 inh | TRPV1 PAM | Menin-MLL FL inh | Sfp PPTase inh | PINK1 modulator
- Cc1cc(N2CCN(c3cccc(C(F)(F)F)c3)CC2)n2ncnc2n1
→ -1.0% | 0.4 | -13 | -16 | 1.8 | 15% | 1.5%
- CCCCNC(=O)N(O)C1N(/N=C/c2ccco2)C(=S)SC1(C)C (stereo not given)
→ 0.9% | 1.6 | 12 | 17 | x | x | 0.7%

# Entries above containing bromine (2):
SMILES,ClpP mod,TRPML1 ag,TRPML1 inh,TRPV1 PAM,Menin-MLL FL inh,Sfp PPTase inh,PINK1 modulator
C/C(=N\NC(=O)C(c1ccncc1)N1CCOCC1)c1ccc(Br)cc1 (stereo not given),-3.7%,0.0,38,-18,-1.4,10%,1.6%
COc1ccc(C(=O)OCC(=O)c2ccc(Br)s2)c(OC)c1,-0.8%,0.1,12,-11,x,x,0.9%

# Later entries:
SMILES,ClpP mod,TRPML1 ag,TRPML1 inh,TRPV1 PAM,Menin-MLL FL inh,Sfp PPTase inh,PINK1 modulator
O=C(NCC1CCCO1)c1ccc(Cl)c(S(=O)(=O)N2CCCCC2)c1 (stereo not given),u,-0.6,-3,2,-3.9,11%,0.8%
COc1cccc2cc(C(N)=O)/c(=N/NC(=O)COc3ccc(Cl)cc3)oc12,x,x,x,-1,0.9,4%,x
O=C(NCc1ccccc1)C1=C[C@H](c2coc3ccccc3c2=O)C[C@H](OCc2ccc(CO)cc2)O1,0.1%,-0.5,-9,7,2.2,-6%,-0.6%
COC(=O)CN(C#N)c1nc(NCc2ccccc2)nc(OC)n1,-0.3%,x,x,-7,2.4,4%,5.3%
COc1ccc(-c2csc(NC(C)c3nc4cc(Cl)c(Cl)cc4n3CCCO)n2)cc1 (stereo not given),-4.8%,0.7,-13,x,x,x,0.9%
O=C(CSc1nncn1-c1ccccc1)Nc1ccc(N2CCOCC2)cc1,-0.5%,0.4,-4,-7,-1.2,6%,1.5%
CN(C)CCCNC(=O)C1(O)c2cc(Br)ccc2NC(=O)N1c1c(F)cccc1F (stereo not given),0.0%,1.1,1,14,-5.1,2%,0.5%
Cc1ccc(COCCN2CCN(S(=O)(=O)c3ccc(C)cc3)CCC2=O)cc1,-1.2%,-0.1,-23,-7,0.6,6%,0.3%
O=C1CC(O)(C(F)F)Oc2ccc3ccccc3c21 (stereo not given),25µM*,-1.9,-9,12,6.6,6%,-1.3%
CCc1ccccc1Nc1nn2c(=O)c3ccc(C(=O)NCc4ccccc4OC)cc3nc2s1,-12%,1.7,-11,x,x,x,-4.4%
O=S(=O)(c1ccccc1)N1CCN(CCOc2ccc(F)cc2)CC1,0.2%,-1.1,13,x,x,x,0.2%
CCOC(=O)N1CCN(C(=O)C2CCN(S(=O)(=O)c3ccc(F)cc3)CC2)CC1,x,0.7,23,-6,0.0,9%,1.2%
O=C(CNS(=O)(=O)c1ccccc1)OCC(=O)c1c[nH]c2ccccc12,0.8%,-0.6,81,28,x,x,0.9%
COc1cc(NC(=O)COCc2cc(-c3ccc4c(c3)OCO4)on2)cc(OC)c1,-8.0%,1.3,18,x,x,x,-0.5%
COc1ccc(/C=C(\NC(=O)c2ccccc2)C(=O)NCc2cccnc2)cc1,x,-0.6,-5,u,-6.8,14%,3.5%
CCOC(=O)c1ccccc1NC(=O)Cn1c2ncccc2c(=O)n1-c1ccccc1,11µM*,-0.5,44,x,x,x,1.5%
O=C(NC1CCCCC1)C(c1ccc2ncccc2c1)N(Cc1cccs1)C(=O)c1cccs1 (stereo not given),0.9%,3.9,28,u,5.4,2%,2.8%[38.3 µM]
COC(=O)Nc1sc2c(c1C(=O)NCc1ccco1)CCC2,-1.8%,0.5,1,5,8.1,u,-2.4%[38.3 µM]
CCOC(=O)Cc1csc(NC(=O)c2cc(OC)cc(OC)c2)n1,-0.8%,-0.4,3,-2,-1.2,3%,-0.2%
